# Tgondii IFNg: T. gondii growth inhibition under IFN-gamma; activity change, negative = inhibition, %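 (about 20 µM by stock and volumes)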; Toxoplasma gondii growth in IFN-gamma-treated host cells; stronger effect = lower value; reference of the scale not given here; actives 3.8% (n = 69,000); AID 1259416;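 active = below -70%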;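 note: host cells are HeLa cells infected with Toxoplasma gondii; parasite growth read as luciferase light; one replicate is shown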
# Starred values were filed as active, the others as inactive; i = inactive. Not all compounds are listed; rates above refer to the full screens.
SMILES,Tgondii IFNg
Cc1ccc(C2(CNC(=O)CN3C(=O)NC4C3N(C)C(=O)N4C)CCOCC2)cc1 (stereo unspecified),-19
C/C=C/c1ccccc1[C@H]1[C@@H](C#N)N(C(=O)CN2CCOCC2)[C@H]1CO,23
CC(C)Sc1ccccc1C(=O)NCc1ccccn1,22
O=C(CSc1nnc(C2CCCCC2)n1-c1ccccc1)NCc1ccccc1,-40
CC(=O)N[C@@H](Cc1ccccc1)C(=O)N1C[C@@H]2[C@H](C1)c1ccccc1[C@H]2NC(C)=O,0
CC(C)C#Cc1ccc([C@@H]2[C@@H](CO)N3C(=O)CN(S(=O)(=O)c4ccccc4)C[C@@H]23)cc1,-48
CC(=O)N1CC2(C1)[C@H](c1ccc(-c3cccc(C#N)c3)cc1)[C@@H](CO)N2CCC(F)(F)F,5
COc1ccc(NC(=O)c2nnn(Cc3nc(-c4ccc(C)cc4)oc3C)c2C)cc1,-95*
COc1ccc2[nH]c(C(=O)O)c(NC(C)=O)c2c1,5
COc1ccc(Cc2nnc(NC(=O)c3cnn4cc(C)cnc34)s2)cc1OC,9
CC1=CC2C(CC1=O)C(C)=CCC2C(C)C (stereo unspecified),10
CN(C(=O)c1cccs1)c1ccccc1-c1n[nH]c(CCc2ccccc2)n1,19
O=C1CCC2(CCN(C(=O)C3CC=CC3)CC2)N1,24
CC[C@@H]1C/C=C\C[C@H](c2ccc(OC)cc2OC)NC(=O)[C@H](C)CC(=O)N1,61
CO[C@H]1CN(C)C(=O)c2ccc(NC(=O)Nc3ccccc3Cl)cc2OC[C@H](C)NC[C@@H]1C,-17
CCN(Cc1ccccc1)C(=O)C1CCC2(CC1)N=C(C)N(CC1CC1)C2=O (stereo unspecified),-6
CCOc1ccc(-c2nc3c(s2)CN(C(=O)Nc2ccc(C)c(C)c2)CC3)cc1,-106*
C[C@@H]1CN([C@@H](C)CO)C(=O)c2ccccc2-c2ccccc2CO[C@H]1CN(C)Cc1cccc(C(=O)O)c1,-7
Cc1ccc2[nH]c(=O)c(CN(CC3CCCO3)C(=O)c3ccc(F)cc3)cc2c1 (stereo unspecified),-18
Cc1occc1C(=O)N1CC[C@H]2[C@@H]1CCC(=O)N2c1cnn(C)c1,1
CCOc1ccc(-c2nc(Cn3nnc(C(=O)Nc4c(C)cccc4C)c3C)c(C)o2)cc1,-94*
CCOc1ccc(CNCc2cccs2)cc1OCC,3
COc1ccccc1NC(=O)c1nnn(Cc2nc(-c3ccc(Cl)cc3)oc2C)c1C,19
CCCCNC(=O)N1CCc2nc(-c3cnn(C)c3)nc(NC(C)C)c2C1,-11
CCN(CC)C(=O)c1ccc(Cl)c(NC(=O)c2ccccn2)c1,-3
Cc1nc(C(F)(F)F)nc(N2CCCCC2)c1Oc1ccccc1,-33
CCO[C@@H]1CC[C@@H]2[C@H]1OCCN2C(=O)C1=CCCCC1,16
CCC(=O)N1CCCC(c2cnc(Nc3nccs3)cn2)C1 (stereo unspecified),-29
Cc1ccc(NC(=O)N2CC(C(=O)N3CCOCC3)C3(CCOCC3)C2)cc1 (stereo unspecified),11
COc1ncc(C(=O)N2CCC(c3cc(C(C)C)n[nH]3)CC2)cn1,1
Cc1nc(-c2cccc(F)c2)sc1CCNS(=O)(=O)c1cc(F)ccc1F,24
CN(CCN1CCCC1)CC1(O)CCCN(Cc2ccc(F)c(F)c2)C1=O (stereo unspecified),-2
Cc1cc(C)c2c(n1)sc1c(=O)n(N)c(C)nc12,-22
Cc1cccc(-c2nc(C)c(CCNC(=O)c3ccccc3)s2)c1,i
Cc1cc(=O)n(CC(=O)Nc2cnc3n2CCCC3)c2ccccc12,1
CCc1ccc(CNC(=O)c2c(O)c3cccnc3n(-c3cccc(OC)c3)c2=O)cc1,-14
CC(=O)OC[C@H]1O[C@@H](n2ccc(=O)[nH]c2=O)[C@H](OC(C)=O)[C@@H]1OC(C)=O,3
CN1C[C@@H](N)C[C@H]1C(=O)NCCCN1CCOCC1,-48
COc1cccc(NC(=O)Nc2ccc3c(c2)C(=O)N(C)C[C@H](OC)[C@@H](C)CN[C@@H](C)CO3)c1,105
COc1ccc(-c2nc(Cn3c(=O)c4c(C)cc(C)nc4n(-c4ccccc4)c3=O)c(C)o2)c(OC)c1,0
O=C(Cn1c(=O)cc(C(=O)N2CCCC2)c2ccccc21)Nc1ccccc1Cl,-55
Cc1cc(C)c2c(CCl)cc(=O)oc2c1,17
COCc1ncc(CN2CCCN(C(=O)C3CCC3)CC2)cn1,-33
Cc1ccc(S(=O)(=O)N(C)C[C@@H]2Oc3cc(C#CC4CCCC4)ccc3S(=O)(=O)N([C@H](C)CO)C[C@@H]2C)cc1,-65
Cc1cccc(-c2ncc(CN3CCCC(Cn4ccnc4C)C3)cn2)c1 (stereo unspecified),-6
CC(C)(C)OC(=O)N1CC(O)CC1C(=O)OCC(=O)c1ccc(Cl)cc1 (stereo unspecified),20
Nc1nc(C(F)(F)F)nn1CC(=O)O,20
CC(=O)N1CCc2ncc(CNC(=O)c3cnn(C)c3)n2CC1,136
O=S(=O)(NCc1ccccc1)N1CCCC(c2nc3ccccc3o2)C1 (stereo unspecified),-11
CCCc1cc(-c2cc(NC3CCNCC3)nc3[nH]ccc23)nc(C)n1,-80*
O=C(CCCS)NC1CCN(C(=O)COc2ccc(Cl)cc2Cl)CC1,-47
CCc1ccc(NC(=O)C2=C(C)C(=O)OC23CCN(C(C)C)CC3)cc1,66
CCN(Cc1ccncc1)C(=O)c1cc(C)c(C)c(S(N)(=O)=O)c1,-16
CC1CCCN(C(=O)c2nc(-c3cccc(F)c3)n3c2CCCCC3)C1 (stereo unspecified),3
CCN1CCC2(CC1)OC(=O)C(C)=C2C(=O)Nc1ccc(C)cc1,115
O=C(c1ccc2cccnc2c1)N1CCOC(c2ccc(Cl)c(Cl)c2)C1 (stereo unspecified),-51
CC(C)NC(=O)[C@H]1CCS(=O)(=O)[C@H]2CN(C(=O)Nc3ccccc3)C[C@@H]12,-19
CC(C)C(OC(=O)Cn1nnc2ccccc21)C(=O)NC1CCCC1 (stereo unspecified),-4
O=C(CC1CCC2(CC1)CCN(c1ncccn1)CC2)N1CC=CC1,-9
Cc1ccc(NC(=O)C(CC(C)C)NS(=O)(=O)c2ccc3[nH]c(=O)ccc3c2)cc1F (stereo unspecified),-13
# Next records
SMILES,Tgondii IFNg
Nc1nnc(CCN2CCc3ccccc3C2)s1,34
C[C@H]1CN([C@@H](C)CO)C(=O)CCCn2cc(nn2)CO[C@H]1CN(C)C(=O)CCC(F)(F)F,3
CCCCc1ccc(C(=O)N2CCn3nc(C(=O)N4CCOCC4)cc3C2)nc1,0
Clc1ccc(CSc2nc(NC3CCCCC3)c3ccccc3n2)cc1,-22
Cc1noc(C)c1CN1CCc2nnc(CO)n2CC1,-35
CN(C)C(=O)CN1CC2CN(Cc3ccncc3)CCC2(c2ccccc2)C1 (stereo unspecified),-3
C1=C/COCc2cc(ccc2OCCN2CCCC2)Nc2nccc(n2)-c2cccc(c2)COC/1,-85*
CCCc1ncncc1C(=O)N1CCc2onc(-c3ccc4c(c3)OCO4)c2C1,-12
Cc1cc(N2CCCN(CC3CCOC3)CC2)ccn1 (stereo unspecified),-23
C[C@H](CO)N1C[C@H](C)[C@H](CN(C)CC2CCCCC2)Oc2ccc(NS(=O)(=O)c3cccs3)cc2CC1=O,-44
Cc1ccc(C)c(-c2coc(-c3ccc(NC(=O)c4ccc(Br)o4)cc3)n2)c1,-48
CO[C@@H]1CN(C)C(=O)c2cc(NC(=O)Nc3c(C)noc3C)ccc2OC[C@H](C)NC[C@@H]1C,-76*
CC1CCN(C(=O)c2cc3cccnc3n(Cc3ccccc3)c2=O)CC1,-4
CCOc1ccc(C2c3[nH]c4ccccc4c3CCN2C(=O)c2snnc2C)cc1 (stereo unspecified),-69
Cc1ccc(S(=O)(=O)N2CCC(c3nnc(-c4cnc(C)cn4)o3)C2)cc1 (stereo unspecified),-11
O=C(O)C1CN(c2nc(-c3ccccc3)nc3c2CCC3)CCN1 (stereo unspecified),-2
O=C(NCCc1csc(-c2ccc(F)cc2)n1)c1ccc(Cl)cc1,-55
C[C@H](O)C#Cc1ccc([C@H]2[C@H](CO)N3CCCCN(C(=O)c4ccc5c(c4)OCO5)C[C@@H]23)cc1,-4
COc1ccc(NC(=O)Nc2ccc(-c3nc(-c4ccccc4)co3)cc2)cc1,-23
CCS(=O)(=O)N1CCC2(CN(c3cnn(C)c3)C(=O)CN2C(C)=O)C1 (stereo unspecified),10
O=C1N(c2cncnc2)CCC12CCN(Cc1ccc(F)cc1)CC2,3
Cc1ccc(N2CCCC3(CCN(Cc4ccc(F)cc4)C3)C2)nn1 (stereo unspecified),2
O=C(c1ccoc1)N1C[C@H]2CC[C@@]3(N=C(c4ccccc4)NC3=O)[C@H]2C1,-39
COCCNC(=O)C[C@@H]1CC[C@H]2[C@@H](COC[C@H](O)CN2S(=O)(=O)c2ccccc2F)O1,21
COc1ccc(-c2noc(CC(=O)O)c2-c2ccc(OC)cc2)cc1,17
COc1ccc(C[C@@H]2CCn3nncc3COC[C@H](c3ccccc3)NC2=O)cc1,-39
COc1ccc(-c2ccc(NC(C)=O)nc2)cc1Cl,-46
Cc1oc(-c2ccc(C(=O)NCCN3CCCC3)cc2)nc1CN1CCN(c2ccccc2)CC1,-76*
C=C(NC(=O)C(=C)NC(=O)c1csc(C2=N[C@H]3c4csc(n4)[C@H]4NC(=O)c5csc(n5)[C@H]([C@@](C)(O)[C@@H](C)O)NC(=O)[C@H]5CSC(=N5)/C(=C/C)NC(=O)[C@H]([C@@H](C)O)NC(=O)c5csc(n5)[C@]3(CC2)NC(=O)[C@H](C)NC(=O)C(=C)NC(=O)[C@H](C)NC(=O)[C@H](C(C)CC)N[C@@H]2C=Cc3c([C@H](C)O)cc(nc3[C@H]2O)C(=O)O[C@@H]4C)n1)C(N)=O (stereo partly specified),-56
CC(=O)N1CCNC(=O)C12CCN(Cc1cnn(C)c1)CC2,1
CCC(=O)N1CC2(C1)[C@H](c1ccc(-c3ccc(F)cc3)cc1)[C@H](CO)N2C(C)=O,-33
O=C(C1CC1)N1CC2(C1)[C@@H](c1ccccc1)[C@@H](CO)N2S(=O)(=O)c1ccccc1,-41
Cc1c(C)c(C)c(C(=O)c2cccs2)c(C)c1C,-4
CC(C)=CC(=O)NCCC1CN(Cc2ccccc2F)CCO1 (stereo unspecified),-6
N#C[C@H]1[C@H](c2ccc(C#Cc3cccc(F)c3)cc2)[C@@H](CO)N1C(=O)C1CCOCC1,-25
O=C(c1cccc(F)c1)N1CC(=O)N2[C@@H](CO)[C@H](c3ccc(C4=CCCCC4)cc3)[C@@H]2C1,-8
CCSc1nc(CC(=O)NCCC2CCCCN2C)cs1 (stereo unspecified),-67
COc1cc2ncnc(Sc3nnc(C)s3)c2cc1OC,46
C=C[C@]1(C)C[C@@H](OC(=O)CSC(C)(C)CNC(=O)[C@H](N)C(C)C)[C@@]2(C)[C@H](C)CC[C@]3(CCC(=O)[C@H]32)[C@@H](C)[C@@H]1O,-65
CC(C)CC(=O)OC1C(N2CCOCC2)c2c(ccc(/C=C/C(=O)N3CCOCC3)c2O)OC1(C)C (stereo unspecified),-41

# Gathered by group: those above containing a COOH group (5)
SMILES,Tgondii IFNg
COc1ccc2[nH]c(C(=O)O)c(NC(C)=O)c2c1,5
C[C@@H]1CN([C@@H](C)CO)C(=O)c2ccccc2-c2ccccc2CO[C@H]1CN(C)Cc1cccc(C(=O)O)c1,-7
Nc1nc(C(F)(F)F)nn1CC(=O)O,20
O=C(O)C1CN(c2nc(-c3ccccc3)nc3c2CCC3)CCN1 (stereo unspecified),-2
COc1ccc(-c2noc(CC(=O)O)c2-c2ccc(OC)cc2)cc1,17

# Following part
SMILES,Tgondii IFNg
O=C(O)[C@@H](S)[C@@H](S)C(=O)O,25
CC(=O)N1CCOC2(CCCN(S(=O)(=O)c3ccccc3F)C2)C1 (stereo unspecified),-8
O=C1CC(c2ccccc2)=NN1c1ccccc1,-39
CC(C)(C)c1ccc(OCC(O)CN)cc1 (stereo unspecified),48
Cc1noc(-c2cc(=O)n(CC(=O)Nc3cccc(C(C)C)c3)c3ccccc23)n1,-25
CCOC(=O)N1CCN(C(=O)c2nc(-c3ccc(C)cc3)n3c2CCCCC3)CC1,29
O=C(NC1CCCC1)N1CCC2(C1)c1ccccc1S(=O)(=O)N2Cc1ccccc1 (stereo unspecified),-7
CCC(C)N(Cc1cccnc1)C(=O)c1cc(C)nn1CC (stereo unspecified),-1
FC(F)(F)c1ccnc(N2CC(c3cccnc3)C2)c1,4
CNCc1nncn1-c1cccc2ccccc12,-51
Cc1oc(-c2ccccc2)nc1Cc1noc(Cc2ccc(F)cc2)n1,-27
O=c1c2ccccc2nc(-c2cccs2)n1-c1cccc2ccccc12,-47
C=CCO[C@@H]1C[C@H]2CN(C(=O)c3cnc(C)cn3)CCN2C1,4
CO[C@H](CN(C)C(=O)Nc1ccc(Cl)cc1)[C@H](C)CN(Cc1ccccc1Cl)[C@H](C)CO,89
O=C(NCc1cccnc1)C1=NOC2(CCCN(C(=O)Cc3ccccc3)C2)C1 (stereo unspecified),-48

# Retrieved by compound from the entries so far (2):
SMILES,Tgondii IFNg
O=C(NC1CCCC1)N1CCC2(C1)c1ccccc1S(=O)(=O)N2Cc1ccccc1 (stereo unspecified),-7
O=c1c2ccccc2nc(-c2cccs2)n1-c1cccc2ccccc12,-47

# Of the compounds above, these contain an aryl thioether with sulfur outside any ring.
SMILES,Tgondii IFNg
CC(C)Sc1ccccc1C(=O)NCc1ccccn1,22
O=C(CSc1nnc(C2CCCCC2)n1-c1ccccc1)NCc1ccccc1,-40
Clc1ccc(CSc2nc(NC3CCCCC3)c3ccccc3n2)cc1,-22
CCSc1nc(CC(=O)NCCC2CCCCN2C)cs1 (stereo unspecified),-67
COc1cc2ncnc(Sc3nnc(C)s3)c2cc1OC,46
